# Screens as filed in PubChem.
# Insulin prom inh: TRM-6 insulin promoter activity inhibition | AID 1273 | TRM-6 cells (human fetal islet line), insulin promoter-eGFP reporter, imaging; reporter expression induced with tamoxifen | inhibition, % at 2 µM | 130,000 tested, 0.9% active;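 active = inhibition above the mean plus 3 SD, with well images judged a real hit on visual review, cut at about 60% in these data, passing the limit was not always enough; inconclusive = inhibition over the cutoff but images rejected on review; inactive = inhibition not above the cutoff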
# PKD1 inh: blocks activity of human protein kinase D1 | Q15139 | PKD1 kinase fluorescence polarization assay | inhibition, %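 (about 10 µM by stock and volumes)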 | 200,000 tested, 0.056% active;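 active = inhibition of 50% or more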;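 note: controls were vehicle for no effect and a reference inhibitor for full effect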
# Target sequence (Q15139 whole entry, looked up): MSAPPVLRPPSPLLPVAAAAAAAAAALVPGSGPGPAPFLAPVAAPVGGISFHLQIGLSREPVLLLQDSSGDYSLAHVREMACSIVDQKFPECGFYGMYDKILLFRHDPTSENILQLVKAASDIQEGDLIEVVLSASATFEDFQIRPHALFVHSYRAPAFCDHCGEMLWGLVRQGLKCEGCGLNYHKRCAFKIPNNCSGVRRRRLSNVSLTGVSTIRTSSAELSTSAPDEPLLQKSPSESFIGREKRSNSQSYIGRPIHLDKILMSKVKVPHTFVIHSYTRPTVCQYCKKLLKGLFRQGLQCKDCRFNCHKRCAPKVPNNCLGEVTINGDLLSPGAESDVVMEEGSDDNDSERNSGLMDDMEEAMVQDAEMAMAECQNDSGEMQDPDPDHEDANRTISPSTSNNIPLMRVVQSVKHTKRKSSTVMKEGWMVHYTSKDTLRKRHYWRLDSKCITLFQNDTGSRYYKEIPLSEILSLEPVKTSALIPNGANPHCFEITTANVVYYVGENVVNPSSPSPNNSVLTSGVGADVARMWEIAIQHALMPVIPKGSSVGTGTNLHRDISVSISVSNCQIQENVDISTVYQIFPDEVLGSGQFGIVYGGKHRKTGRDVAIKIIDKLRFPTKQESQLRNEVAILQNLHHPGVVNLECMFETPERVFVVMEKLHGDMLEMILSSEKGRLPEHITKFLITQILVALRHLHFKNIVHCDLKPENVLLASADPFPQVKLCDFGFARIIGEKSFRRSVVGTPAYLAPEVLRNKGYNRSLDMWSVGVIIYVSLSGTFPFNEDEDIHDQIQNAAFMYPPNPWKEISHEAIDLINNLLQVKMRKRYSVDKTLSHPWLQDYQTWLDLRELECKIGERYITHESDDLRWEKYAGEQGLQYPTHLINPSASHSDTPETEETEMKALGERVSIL
# GALR2 agonist: GALR2 (human) receptor agonism. O43603. GALR2-expressing cells, agonist activation read-out. activation, %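 (tested at 5 µM)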. 140,000 tested, 0.48% active;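 active = above mean plus 3 SD of all compounds, about 5% in these data, not always enough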;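 note: 0% = vehicle buffer wells and 100% = reference agonist at full effect; tested in CHO reporter cells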
# RGS16-Gao: RGS16-Galphao interaction regulator (human) | O15492+P09471 | bead-based flow cytometry RGS16-Galphao binding, fluorescence; actives lie on both sides | binding response (% of control), % at 10 µM | 220,000 tested, 0.38% active | AID 1441;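 active = below 25% or above 175%, edge rows of some plates excepted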;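 note: Galphao activated by GDP with aluminum fluoride before binding; 100% = wells without compound and 0% = beads without RGS; some results beyond the cut were filed as inactive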
# HSV replic up: HSV replication enhancement; 220,000 tested, 0.005% active; maximum fold increase; HSV replication augmentation in cells, fold increase;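 active = peak rise of 1.5-fold or more in the series; inconclusive = self-fluorescent or not available for retest; tested in PC3 cells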;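 note: first round at 10 µM; read as green reporter fluorescence; hits show the peak of a series up to 25 µM; 1 = signal of infected wells without compound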
# Insulin prom inh cell count: second read-out of Insulin prom inh, no call of its own (marks repeat the call); normalized cell count, %; measured here: cell count, toxicity; reference of the scale not given here;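 cells exposed to compound for 48 h; stained nuclei by imaging scaled within each plate; lower means fewer cells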
# HSV replic up primary fold: second read-out of HSV replic up, no call of its own (marks repeat the call); fold increase; compound at 10 µM; measured here: primary screen fold increase 10 uM; tested in PC3 cells;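 GFP signal in the first replicate; 1 = infected wells without compound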
# An asterisk follows results filed as active; i = inactive; u = inconclusive; x = not tested or not shown. Rows are unselected; 1.3% or so of the library scored in one or more.
Compound	Insulin prom inh	Insulin prom inh cell count	PKD1 inh	GALR2 agonist	RGS16-Gao	HSV replic up	HSV replic up primary fold
Cc1ccc(NC(=O)c2sc3nc(C)nc(N4CCN(c5ccccn5)CC4)c3c2C)c(C)c1	-32	83	0	x	93	i	1
CS(=O)(=O)c1ccc(C(=O)NCC2(N3CCCCC3)CCCCC2)cc1	-26	112	4	-1.0	109	i	1
COCCn1cnnc1SCC(=O)Nc1cc(OC)c([N+](=O)[O-])cc1C	42	185	-8	x	106	i	0.93
CC(C)CCC(C)N=Cc1c(O)n(Cc2ccccc2)c(=O)c2ccccc12 (configuration not stated)	46	144	-5	-1.1	97	i	0.93
CCOC(=O)CSc1n[nH]c(NC(=O)c2ccccc2)n1	18	88	-9	-1.3	88	i	1.3
O=[N+]([O-])c1ccc(N=Cc2ccc(Br)c([N+](=O)[O-])c2)cc1	0	43	-9	-0.6	109	i	0.82
Cc1nc(N2CCC3(CC2)OCCO3)c2nnn(Cc3ccccc3F)c2n1	14	57	-3	0.1	79	i	0.8
O=C(Cc1cccs1)N=Nc1c(O)[nH]c2ccc(Br)cc12	x	x	x	x	100	i	0.93
Clc1ccc(C[n+]2cc(-c3ccccc3)n3c2CCC3)cc1Cl	x	x	-11	-1.0	123	i	1
C=CCn1c(=NC(=O)c2ccco2)sc2cc(C(=O)OC)ccc21	x	x	-9	0.9	103	i	1.2
Cc1ccccc1C(=O)c1cccn1CC(=O)NC(C)c1ccc2c(c1)OCCO2 (configuration not stated)	x	x	2	x	96	i	0.94
O=C1CCCC2=C1C(c1ccncc1)n1c(nc3ccccc31)N2 (configuration not stated)	x	x	-3	x	95	i	0.96
COc1cc(C2=NOC(C(=O)NCc3ccc(F)cc3)C2)cc(OC)c1OC (configuration not stated)	-100	10	-6	0.6	97	x	x
O=C(CCc1nc(-c2cccs2)no1)NCc1ccc(F)cc1Cl	x	x	3	-2.0	99	i	0.91
COc1ccccc1C(O)(C(=O)NN(C(=O)c1ccccc1)c1ccccc1C)c1cccs1 (configuration not stated)	-5	111	-8	-0.1	101	i	1
COc1ccc(C(CC(=O)c2ccccc2)CC(=O)c2ccccc2)cc1	x	x	x	x	102	i	0.9
COc1ccccc1C(=O)C1CCCN(C(=O)c2cccnc2SC)C1 (configuration not stated)	x	x	1	x	101	i	1
C=C(C)C1CC=C(C)/C(=N/NC(=O)COc2ccc(C)cc2)C1 (configuration not stated)	3	55	6	0.0	89	i	1
CCOC(=O)Nc1ccc(C)cc1Br	0	83	-16	-1.4	100	i	0.96
CCOc1ccc(-c2cc(CCCC(=O)NCCC(C)C)no2)cc1	x	x	-10	x	95	i	0.94
CC1=CS/C(=C(/C#N)C(=O)N2CCOCC2)N1c1ccccc1	-29	109	-8	-3.6	97	i	0.98
Cc1ccc(C(C(=O)NC2CCCC2)N(C(=O)CCC(=O)Nc2cc(C)on2)c2ccccc2)cc1 (configuration not stated)	-343	63	8	-2.4	105	i	0.99
Cc1ccc(C)c(NS(=O)(=O)c2ccc(OCC(=O)N3CCCC3)cc2)c1	-15	57	-6	-4.1	100	i	0.92
N#CC1(Nc2ccccc2)C(=O)Nc2ccccc21 (configuration not stated)	50	93	7	-2.8	107	i	0.98
CCOC(=O)N1CCN(Cc2c(F)cccc2Cl)CC1	-70	122	-12	0.1	104	i	0.83
O=C(CCc1ccccc1)N/N=C/c1cccc([N+](=O)[O-])c1	x	x	-3	x	107	i	0.97
O=C(NCc1cccc(F)c1)c1ccc(N2C(=O)Cn3c(cc4sccc43)C2=O)cc1	4	151	-7	0.7	108	i	1.1
Cn1ncc(SCc2ccccc2)c(Cl)c1=O	x	x	x	x	104	i	0.97
CCc1ccccc1NC(=O)Nc1ccc(F)cc1	x	x	0	x	101	i	1.1
Cc1cnc(SCc2ccc(Cl)cc2Cl)[nH]c1=O	x	x	x	x	99	i	0.86

# Overlap with the part before: 6 compounds, then new ones.
Compound	Insulin prom inh	Insulin prom inh cell count	PKD1 inh	GALR2 agonist	RGS16-Gao	HSV replic up	HSV replic up primary fold
CCOC(=O)N1CCN(Cc2c(F)cccc2Cl)CC1	-70	122	-12	0.1	104	i	0.83
O=C(CCc1ccccc1)N/N=C/c1cccc([N+](=O)[O-])c1	x	x	-3	x	107	i	0.97
O=C(NCc1cccc(F)c1)c1ccc(N2C(=O)Cn3c(cc4sccc43)C2=O)cc1	4	151	-7	0.7	108	i	1.1
Cn1ncc(SCc2ccccc2)c(Cl)c1=O	x	x	x	x	104	i	0.97
CCc1ccccc1NC(=O)Nc1ccc(F)cc1	x	x	0	x	101	i	1.1
Cc1cnc(SCc2ccc(Cl)cc2Cl)[nH]c1=O	x	x	x	x	99	i	0.86
Cc1ccc(NS(=O)(=O)c2ccc(OCC(=O)NCC3CCCO3)cc2)cc1 (configuration not stated)	x	x	-8	x	104	i	0.92
OC(c1ccccn1)C1CCN(Cc2nc(C(c3ccccc3)c3ccccc3)no2)CC1 (configuration not stated)	17	131	-8	x	96	i	1
COc1ccc(Cn2c(-c3ccco3)nc3oc4cc(OC)ccc4c(=O)c3c2=O)cc1	43	63	-11	1.6	103	i	0.97
Cc1cc(C)nc(NC(=O)Cc2cccs2)n1	36	85	-1	0.5	117	i	0.92
COc1ccc([N+](=O)[O-])cc1N(CC(O)CN(CC(C)C)CC(C)C)S(=O)(=O)c1ccccc1 (configuration not stated)	-37	111	0	-1.2	112	i	0.84
C=CCNc1oc(-c2ccc(OC)cc2)nc1C#N	43	105	-6	-1.1	100	i	0.86
CC1CCCc2sc3ncn(N)c(=N)c3c21 (configuration not stated)	x	x	0	x	98	i	0.9
CCCn1c(SCC(=O)Nc2ccccc2Oc2ccccc2)n[nH]c1=O	-7	121	8	-1.5	-28*	i	0.97
CCOC(=O)Cc1csc(NC(=O)CSc2nnc(C(C)C)n2CC)n1	57	143	-5	-1.7	97	i	1
COC(=O)CCCC1=CC2=CC(=O)C(C)(OC(=O)c3cccs3)C(=O)C2=CN1C1CCCC1 (configuration not stated)	x	x	x	x	98	i	1.2
COc1cc2[nH]c(=O)n(CCC(=O)N3CCN(c4cc(Cl)ccc4C)CC3)c(=O)c2cc1OC	16	62	-11	1.1	100	x	x
CC(=O)OCC(OC(C)=O)C(OC(C)=O)C(OC(C)=O)C(=O)Nc1cccc(C)c1 (configuration not stated)	x	x	x	x	100	i	0.97
CN(C)c1ccc(/C=C(\C#N)C(=O)Nc2nc3c(s2)CCN(Cc2ccccc2)C3)cc1	-75	42	-6	-0.2	124	u	x
CC(=O)Nc1nonc1C(=O)N1CCC(C)CC1	40	142	2	-0.1	47	i	1.1
C=CCOC(=O)C1=C(C)NC(=S)NC1/C=C/c1ccccc1 (configuration not stated)	22	133	2	1.2	113	i	1
N#C/C(=C(/O)COC(=O)c1cccnc1Cl)c1nc2ccccc2[nH]1	-33	131	7	x	99	i	0.95
O=C(Cn1cc(C(=O)C2CC2)c2ccccc21)NCc1ccccc1	-338	68	-5	-1.4	85	i	1
Fc1ccc(-c2nc(-c3cccs3)[nH]c2-c2ccc(F)cc2)cc1	14	120	-7	1.3	49	i	0.86
Cc1ccc(N2C(=O)CSC2c2ccc3c(c2)OCO3)cc1 (configuration not stated)	0	107	-3	-1.9	105	x	x
O=C(CNC(=O)c1ccco1)OCC(=O)c1cccc2ccccc12	-3	81	10	-2.1	102	i	0.97
Nc1ccc(Cl)c[n+]1Cc1cccc2cccnc12	x	x	x	x	102	i	1
CCOC(=O)c1cc(-c2ccccc2)sc1NC(=S)Nc1cccc(C)n1	x	x	0	0.7	102	i	0.91
O=C(CC(c1ccco1)C1CCCCC1=O)c1ccccc1 (configuration not stated)	-29	91	1	-1.9	107	i	0.93
Cc1oc2cc(OC(=O)c3ccco3)ccc2c(=O)c1-c1nc2ccccc2n1C	36	112	-11	-1.8	103	i	0.93
O=[N+]([O-])c1ccccc1/C=C/C=N/Nc1nc(N2CCCCC2)nc(N2CCCCC2)n1	-11	105	-4	x	103	i	1.1
COC(=O)c1ccc(NC(=S)NNC(=O)c2ccccc2)cc1	x	x	3	x	75	i	0.96
CC1(C)CCSC(/C=C/c2ccccc2)=N1	x	x	x	x	96	i	0.5
O=C(O)Cc1ccc(NC(=O)c2cccc(NC(=O)c3ccco3)c2)cc1	x	x	5	x	109	i	1.1
S=C(NCCc1c[nH]c2ccccc12)NC1CC1	x	x	5	x	106	i	0.92
CC1CN(Cc2nc3c(c(=O)n(C)c(=O)n3C)n2CCN2CCOCC2)CC(C)O1 (configuration not stated)	x	x	-12	0.7	96	i	0.9
Cc1ccc(-c2cn(-c3ccc(OC(F)F)cc3)c3[n+]2CCCCC3)cc1	x	x	x	x	104	i	0.99
Cc1ccc(-c2nc3ncccn3c2Nc2ccc3c(c2)OCCO3)o1	-7	109	-8	0.1	101	i	1.1
O=C(NCCO)C(=O)c1c(-c2ccccc2)cc2ccccn12	x	x	-4	x	101	i	1
CCN(CC)S(=O)(=O)c1cnccc1N1CCN(c2cccc(Cl)c2)CC1	-67	77	-9	0.2	102	i	0.88
O=C1c2cccnc2C(=O)N1C1CCCCC1	-57	91	-1	-2.8	100	i	1.1
Cc1cccc(C)c1NC1=NC(=S)N(c2ccc(N(C)C)cc2)C1(C)C	x	x	-3	-2.2	95	x	x
Cc1sc2nc3n(c(=O)c2c1C)CCCS3	8	106	1	-2.3	103	i	0.95
CCN1CCN(c2ccc(N=Cc3ccccc3O)cc2)CC1	44	155	-12	x	100	i	0.9
Cc1ccc(S(=O)(=O)N2CCC(C(=O)N[C@H](C(=O)NC3CCS(=O)(=O)C3)C(C)C)CC2)cc1 (some centres not stated)	16	100	5	0.9	100	x	x
COc1ccc(S(=O)(=O)N(C)CC(=O)N2CCC(C(N)=O)CC2)cc1Cl	13	89	2	-1.6	99	i	0.92
CC(C)(CO)NCC(=O)Nc1cc(C(F)(F)F)cc(NC(=O)CNC(C)(C)CO)c1Cl	-30	128	-12	0.1	109	i	1
C/C(=N\NC(=O)c1ccccc1C)c1ccc(NC(=O)c2cccs2)cc1	x	x	2	-1.5	78	x	x
CCN(CC)S(=O)(=O)c1ccc(Cl)c(C(=O)OCC(=O)c2c(N)n(C)c(=O)n(C)c2=O)c1	x	x	x	x	98	i	0.98
O=C(CCN1CCc2ccccc2C1)Nc1ccc2c(c1)OCO2	33	152	0	-0.6	102	i	0.98
Cn1ncc(Cl)c(Oc2ccccc2)c1=O	-19	47	-14	0.6	101	i	1.1
CS(=O)(=O)N1CCN(C(=O)C2c3ccccc3Oc3ccccc32)CC1	-140	78	-4	0.9	103	i	1.1
COc1ccc(CCN(C)C(=O)CCc2nnc(-c3ccccc3)o2)cc1OC	-5	58	-4	x	108	i	1.1
CCOC(=O)CNC(=O)CSc1ccc2nnc(-c3cccnc3)n2n1	0	132	0	x	97	i	0.94

# Ordered by number of heavy atoms (falling): part of the list above
Compound	Insulin prom inh	Insulin prom inh cell count	PKD1 inh	GALR2 agonist	RGS16-Gao	HSV replic up	HSV replic up primary fold
COc1ccc([N+](=O)[O-])cc1N(CC(O)CN(CC(C)C)CC(C)C)S(=O)(=O)c1ccccc1 (configuration not stated)	-37	111	0	-1.2	112	i	0.84
CC1CN(Cc2nc3c(c(=O)n(C)c(=O)n3C)n2CCN2CCOCC2)CC(C)O1 (configuration not stated)	x	x	-12	0.7	96	i	0.9
C/C(=N\NC(=O)c1ccccc1C)c1ccc(NC(=O)c2cccs2)cc1	x	x	2	-1.5	78	x	x
Cc1ccc(N2C(=O)CSC2c2ccc3c(c2)OCO3)cc1 (configuration not stated)	0	107	-3	-1.9	105	x	x
Cn1ncc(SCc2ccccc2)c(Cl)c1=O	x	x	x	x	104	i	0.97
CCOC(=O)Nc1ccc(C)cc1Br	0	83	-16	-1.4	100	i	0.96
